Cruzain noTriton: cruzain (T. cruzi) inhibition without detergent; P25779; purified cruzain, Z-FR-AMC fluorescence, no detergent; Potency, µM, for the others: max response, negative = inhibition, usual class: inhibitors; hit rate 2.3% among 200,000; AID 1476;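 note: plate controls were enzyme without inhibitor for no effect and buffer without enzyme for full effect; nearly all actives have a fitted effect of over 40% in size; top concentration of the series not given in the record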
Target sequence (P25779 123-467 limits assumed): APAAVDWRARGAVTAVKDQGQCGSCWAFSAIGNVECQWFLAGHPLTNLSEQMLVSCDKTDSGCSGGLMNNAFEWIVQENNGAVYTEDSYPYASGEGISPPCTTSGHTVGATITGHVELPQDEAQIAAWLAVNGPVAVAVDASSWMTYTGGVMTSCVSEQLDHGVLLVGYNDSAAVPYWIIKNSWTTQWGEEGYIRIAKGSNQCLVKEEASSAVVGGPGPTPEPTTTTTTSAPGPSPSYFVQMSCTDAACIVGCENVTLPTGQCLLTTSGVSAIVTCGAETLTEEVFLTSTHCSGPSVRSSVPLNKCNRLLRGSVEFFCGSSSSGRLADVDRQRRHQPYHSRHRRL
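Detergent-free condition (0.00005% Triton X-100) in acetate buffer pH 5.5 with DTT. 1.5 nM enzyme and compound were pre-mixed 15 min, then 2 uM Z-FR-AMC substrate added; reaction progress from fluorescence change between first and third reads (60 s).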
LASV entry inh: Lassa virus entry inhibition | Lassa virus pseudotype entry inhibition, cell reporter; control for the full effect not named in the record | Potency, µM (doses to about 37.9 µM), without a hit: top-dose activity change, negative = inhibition, most hits filed as inhibitors | hit rate 1.2% among 300,000; active means well fitted inhibition curve with a large enough effect; inconclusive means small, poorly fitted or top-dose-only effect, or effect the other way; inactive means flat fitted curve, though single readings scatter; tested in HEK293 cells; note: % is set by controls: 0 for no effect and ±100 for the full control effect; nearly all actives have a fitted effect of over 50% in size; luciferase read-out
SARS PLpro yeast: inhibitors of SARS-CoV papain-like protease in yeast. S. cerevisiae expressing SARS-CoV PLpro, growth rescue; control for the full effect not named in the record. Potency, µM (series often up to 32.9 µM), inactives show at the top dose activity, positive = growth rescue. hit rate 0.19% among 330,000; active means well fitted rising curve with a large enough effect; inconclusive means small, poorly fitted or top-dose-only effect; inactive means no such curve, though single readings can be large or run the other way; note: 0% is about no effect; nearly all actives have a fitted effect of over 55% in size; growth read by luminescence after 48 h
Cruzain Triton: inhibitors of Trypanosoma cruzi cruzain with detergent | P25779 | purified cruzain, Z-FR-AMC fluorescence, 0.01% Triton | Potency, µM, for inactives: max response, negative = inhibition, actives largely listed as inhibitors | hit rate 0.43% among 200,000 | AID 1478;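 note: plate controls were neutral wells for no effect and buffer without enzyme for full effect; nearly all actives have a fitted effect of over 40% in size; top concentration of the series not given in the record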
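Cysteine protease activity tested under reducing, mildly acidic conditions (100 mM sodium acetate pH 5.5, 5 mM DTT) plus 0.01% Triton X-100. Cruzain 1.5 nM; substrate Z-FR-AMC 2 uM; 15 min compound preincubation at room temperature.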
2A StopGo: lowers the luciferase signal of an FMDV 2A StopGo reporter. human cells with a luciferase reporter of 2A StopGo recoding; control for the full effect not named in the record. Potency, µM (highest dose often 57.9 µM), for inactives: at the top dose signal change, negative = less light. hit rate 1.2% among 410,000; active = well fitted falling curve with a large enough effect; inconclusive = small, poorly fitted or top-dose-only effect; inactive = no such curve, though single readings can be large or run the other way; tested in HEK293T cells; note: % is set by controls: 0 for no effect and ±100 for the full control effect; nearly all actives have a fitted effect of over 45% in size; luciferase light after 4 h
MARV entry inh: Marburg virus entry inhibition; hit rate 1.8% among 300,000; AID 540276; Marburg virus pseudotyped entry inhibition, cell reporter; control for the full effect not named in the record; about a third of the inactives were read at about 46 µM; Potency, µM (titrated, usually from 37.8 µM), for inactives: at the highest dose activity change, negative = inhibition, usual class: inhibitors; active = well fitted inhibition curve with a large enough effect; inconclusive = small, poorly fitted or top-dose-only effect, or effect the other way; inactive = flat fitted curve, though single readings scatter; tested in HEK293 cells; about a fifth of its hits are not listed in these tables; note: % is set by controls: 0 for no effect and ±100 for the full control effect; luciferase read-out
NS1 inh: influenza NS1 inhibition; S. cerevisiae slowed by influenza A NS1, growth recovery by OD600; Potency, µM (highest dose often 46.1 µM), without a hit: top-dose activity, positive = more growth; AID 2326; hit rate 0.4% among 270,000; active means well fitted rising curve with a large enough effect; inconclusive means small, poorly fitted or top-dose-only effect; inactive means no such curve, though single readings can be large or run the other way; note: nearly all actives have a fitted effect of over 50% in size
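Read-out: OD600 growth recovery of NS1-expressing budding yeast. Cells grown overnight at 30C in -URA glucose medium, washed, resuspended and diluted 1:100 in 2% galactose assay medium, pH 6.0. Same strain lacking NS1 served as positive control.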
RE007 growth inh: less growth of the S. pombe RE007 Vpr strain; S. pombe RE007 Vpr strain, BacTiter-Glo ATP luminescence, 24 h; control for the full effect not named in the record; Potency, µM (top dose mostly 92.2 µM), inactives show at the top dose activity change, negative = less growth; hit rate 0.21% among 360,000; AID 651644; active = well fitted falling curve with a large enough effect; inconclusive = small, poorly fitted or top-dose-only effect; inactive = no such curve, though single readings can be large or run the other way;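 note: % is set by controls: 0 for no effect and ±100 for the full control effect; nearly all actives have a fitted effect of over 50% in size; the assay follows cell death caused by Vpr and the record does not say whether a fall means rescue or toxicity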
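Fission yeast strain RE007, carrying one chromosomally integrated HIV-1 vpr copy, was seeded at OD 0.01 in PMG+AL medium with 23 nL pinned compound. After 24 h at 30 °C and 99% humidity, viability was read by BacTiter-Glo luminescence.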
* = called active by the depositor; ? = inconclusive; . = not tested or not shown; & = joins results of further samples; [ ] = remark or other dose. Unless noted, calls come from the whole dose curve; as a rule, active = well fitted curve in the direction sought with a large enough effect; inconclusive = small, poorly fitted or top-dose-only effect, or another doubt; inactive = no such curve, though single readings can be large; an effect the other way counts as inactive or inconclusive. Potency is the fitted concentration of half-maximal effect.

SMILES | Cruzain noTriton | LASV entry inh | SARS PLpro yeast | Cruzain Triton | 2A StopGo | MARV entry inh | NS1 inh | RE007 growth inh
CC1CCCN(S(=O)(=O)c2cc(C(=O)NCc3ccccc3Cl)n(C)c2)C1 (stereo not given) | -8% | -10%[46.1 µM] | . | -10.0% | -17% | . | . | .
O=C(Nc1ccc2c(c1)OCO2)c1ccc(N2CCCC2)c([N+](=O)[O-])c1 | 25µM* | -14% | -52% | -10% | 11% | 4% | 13% | 3%
CC(=O)c1cccc(N=C2C(=O)Nc3ccccc32)c1 | -1% | -4% | -1% | 1.2% | 18% | 16% | -6% | 5%
COC(=O)c1ccccc1NC(=O)N1CCN(c2ccccc2)CC1 | . | -2% | -2% | . | -18% | 17%[46.1 µM] | 0% | 0%
O=C(Nc1nc2cc3c(cc2s1)OCO3)C1=COCCO1 | 2% | ? | -33% | -5.5% | -83% | 0.65µM* | -6% | ?
Cn1c(C(=O)N2CCCC(C(=O)NCCCc3ccccc3)C2)cc2sccc21 (stereo not given) | ? | -12% | 7% | -4.8% | ? | ? | -13% | -9%
Cc1ccc(OCC(=O)NCCCNC(=O)COc2ccc(C)cc2)cc1 | . | -3%[46.1 µM] | 4% | . | -7% | -7%[46.1 µM] | -31% | 3%
CC12CN3C(O)C(C)(C1)CC(C)(C2)C3O (stereo not given) | -3% | 3% | 5% | 4.8% | 0% | ? | -1% | 11%
O=C(COc1ccc(Br)cc1)NCc1cn2ccccc2n1 | . | -1% | -1% | . | -7% | -2%[46.1 µM] | 0% | -12%
CC(C)(Oc1ccc(Cl)cc1)C(=O)Nc1ncccn1 | 7% | 14% | 15% | 4.3% | 5% | 0% | 0% | 0%
O=C(CO/N=C/c1ccc2c(c1)OCO2)Nc1cccc(Br)c1 | -2% | 24% | -20% | -6.5% | 2% | -20% | -5% | 31%
O=C(Nc1ccc(N2CCOCC2)nc1)c1ccc(F)cc1 | -13% | 9% | -8% | 2.5% | 36%[activator] | 3% | 3% | -11%
CC(C)C(c1nnnn1CCc1ccccc1)N1CCC(C(N)=O)CC1 (stereo not given) | . | 10% | 1% | . | -6% | 1%[46.1 µM] | 4% | 4%
Cc1cccc(/C=N\N=C\c2cccc(C)c2)c1 | . | -2% | 7% | . | 71%[activator] | -2% | -11% | -14%
Cc1nc(C(=O)NCCCO)cc2c1[nH]c1ccccc12 | . | . | 1% | . | 19% | . | 1% | 2%
CN1C2=NCCN2C(=O)c2cc(Cl)ccc21 | . | 7% | -1% | . | 6% | -2%[46.1 µM] | 0% | -19%
CCC(=O)NN1CCN(c2ccncc2S(=O)(=O)N2CCCCC2)CC1 | . | . | -2% | . | -9% | . | 13% | 6%
CCC(=O)Nc1nc2cc(OC)ccc2s1 | 7% | ? | 1% | 0.6% | -1% | -4% | -8% | -19%
Cn1ccc(C(=O)OCC(=O)Nc2cccc(Cl)c2)n1 | . | 2% | 5% | . | 16% | 8%[46.1 µM] | 0% | 17%
CC(=O)NC(CCS(C)(=O)=O)C(=O)Nc1cccc(C)c1C (stereo not given) | -14% | 4% | 7% | 1.4% | -16% | 17% | 0% | -2%
Cc1c(CN2CCCCC2)c(O)n(CCO)c(=O)c1C#N | . | 11% | 0% | . | -9% | -6%[46.1 µM] | 5% | 3%
C(=N\n1cnnc1)/c1ccc2ncccc2c1 | -13% | 11% | 0% | 3.5% | -3% | -4% | 2% | -1%
CC(=O)c1c(C)[nH]c(C(=O)COc2ccc3ccc(=O)oc3c2)c1C | . | 2%[46.1 µM] | 3% | . | 28µM* | ? | . | -1%
O=C(NCc1ccccc1)N1CCNCC1 | . | 1% | -3% | . | -8% | 2% | -3% | -1%
O=C(Nc1ccccc1)c1ccc2snnc2c1 | . | 13% | 0% | . | 31%[activator] | 6%[46.1 µM] | -1% | -15%
C=CCNC(=O)CN1C(=O)C2C3c4ccccc4C(c4ccccc43)C2C1=O (stereo not given) | . | 25%[46.1 µM] | 0% | . | 0% | 4%[46.1 µM] | . | 4%
O=C(CCNC(=O)c1ccccc1Cl)NCCc1ccc(Cl)cc1 | . | . | 0% | . | -14% | . | 1% | -2%
CCCOc1ccc(-c2nc(C#N)c(NCCCn3ccnc3)o2)cc1 | 9% | -2% | 4% | -16% | 15% | 0% | 4% | 5%
Cc1ccnc2c1ccc1cccnc12 | . | ? | 2% | . | -8% | ? | . | ?
O=C(Nc1ccc2c(c1)OCO2)c1c(Cl)nc2sccn12 | 6% | 12% | 3% | 0.3% | 50%[activator] | 5% | -6% | -2%
COc1ccccc1C=NNC(=O)NN=Cc1ccccc1OC | . | -6%[46.1 µM] | . | . | 14% | -4%[46.1 µM] | . | -6%
Cc1ccccc1OCC(=O)Nc1sc2c(c1C#N)CC(C)(C)NC2(C)C | . | ? | 1% | . | -7% | ? | -15% | -15%
O=C(CN1CCN(Cc2ccccc2)CC1)Nc1ccccc1 | . | 1% | 2% | . | 4% | 9% | 14% | 1%
O=S(Cc1ccccc1)CC(O)(c1ccccc1)c1ccccc1 (stereo not given) | 0% | 8% | 0% | 2.0% | 18% | -21% | -8% | 2%
CCCCNC(=O)c1onc(CSc2cccc(Cl)c2)c1C(=O)O | 1% | . | -6% | -0.2% | -14% | . | -3% | 1%
COc1ccc(NC(=O)c2cc(S(=O)(=O)N3CCc4ccccc43)cn2C)cc1OC | . | . | -1% | . | -12% | . | 6% | -6%

Fetched by compound from the list above, five records:
SMILES | Cruzain noTriton | LASV entry inh | SARS PLpro yeast | Cruzain Triton | 2A StopGo | MARV entry inh | NS1 inh | RE007 growth inh
COc1ccccc1C=NNC(=O)NN=Cc1ccccc1OC | . | -6%[46.1 µM] | . | . | 14% | -4%[46.1 µM] | . | -6%
O=C(Nc1ccccc1)c1ccc2snnc2c1 | . | 13% | 0% | . | 31%[activator] | 6%[46.1 µM] | -1% | -15%
Cc1ccnc2c1ccc1cccnc12 | . | ? | 2% | . | -8% | ? | . | ?
O=S(Cc1ccccc1)CC(O)(c1ccccc1)c1ccccc1 (stereo not given) | 0% | 8% | 0% | 2.0% | 18% | -21% | -8% | 2%
O=C(CCNC(=O)c1ccccc1Cl)NCCc1ccc(Cl)cc1 | . | . | 0% | . | -14% | . | 1% | -2%

(more compounds)
SMILES | Cruzain noTriton | LASV entry inh | SARS PLpro yeast | Cruzain Triton | 2A StopGo | MARV entry inh | NS1 inh | RE007 growth inh
C/C(CC(C)C)=N/Nc1ccc([N+](=O)[O-])cc1[N+](=O)[O-] | . | . | 0% | . | -9% | . | 3% | -5%
CCn1ncc(CN2CCCC(C(=O)c3cccc(OC(C)C)c3)C2)c1C (stereo not given) | . | . | 1% | . | -19% | . | -2% | -22%
CCOc1cc(/C=N\Nc2nc(Nc3ccccc3)nc(N3CCOCC3)n2)ccc1OC(=O)c1ccco1 | -17% | ? | 7% | -2.5% | -7% | 3.3µM* | 13% | .
OCCCNc1nc(-c2ccccc2)nc2c1oc1ccccc12 | . | -10% | -1% | . | -26% | -15% | 1% | 11%
COc1ccccc1C(=O)Nc1ccc(C(=O)O)cc1 | 0% | 2% | 6% | -0.5% | 24% | 11% | -7% | -1%
CN(Cc1ccccc1)C(=O)C1CCCN(c2ncnc3c2nc2n3CCCCC2)C1 (stereo not given) | . | -19%[46.1 µM] | -1% | . | -5% | -26%[46.1 µM] | -20% | -13%
COc1ccccc1N1CCN(C(=O)C2CCN(S(=O)(=O)c3ccc4c(c3)CC(C)N4C(=O)C3CC3)CC2)CC1 (stereo not given) | . | . | 4% | . | ? | . | -8% | -6%
Cc1ccc(Cl)cc1NC1=C/C(=N\S(=O)(=O)c2cccs2)c2ccccc2C1=O | ? | 6.5µM* | -22% | -7.2% | 14µM* | ? | -51% | -18%&-12%
CCn1c(C(=O)NCCc2ccc(S(N)(=O)=O)cc2)cc2sc(Cl)cc21 | -12% | . | . | -3.9% | ? | 7%[46.1 µM] | . | .
CN(Cc1ccccc1)S(=O)(=O)c1ccc(F)c(C(=O)Nc2cc(Cl)cc(Cl)c2)c1 | ? | 11%[46.1 µM] | . | -0.2% | -10% | . | . | .
CC(=O)c1ccc(NC(=O)CS(=O)(=O)c2cn(CC(=O)N3CCOCC3)c3ccccc23)cc1 | . | . | 4% | . | -5% | . | 1% | 13%
COc1ccc(CCNC(=O)CCn2c(=O)oc3ccccc32)cc1OC | 4% | . | -1% | -3.1% | -24% | . | -6% | -9%
C=CCn1c(C(c2ccccc2)c2ccccc2)n[nH]c1=S | 3% | -5% | 0% | -3.2% | -7% | 9% | -2% | -8%
CC(C)(C)c1csc(NC(=O)Cc2cccs2)n1 | . | ? | -3% | . | 3% | 19% | -3% | 5%
COc1cc(C2CC(=O)Nc3c2c(=O)n(C)c2ncnn32)cc(OC)c1OC (stereo not given) | 11% | 23%[46.1 µM] | . | -0.9% | -20% | -26%[46.1 µM] | . | .
CC1CCC2(CC1)NC(=O)N(CC(=O)NCCc1ccccc1)C2=O (stereo not given) | . | 12%[46.1 µM] | 0% | . | 14% | 12%[46.1 µM] | . | 12%
COc1ccccc1C(=O)NC(=O)CSc1nc(C)cs1 | . | ? | 1% | . | 96%[activator] | -5% | . | 4%
Cc1cccc(C)c1NC(=O)CS(=O)CC(=O)NC1CCCc2ccccc21 (stereo not given) | -2% | -22% | 14% | -1.6% | -14% | -7% | -2% | -1%
Cc1cnc(C(=O)Nc2cccc3cccnc23)cn1 | -17% | 1.6µM* | 16% | -1.2% | 12% | ? | -10% | ?
O=C(NC(=S)Nc1ccc2ncccc2c1)c1ccccc1 | . | ? | 1% | . | 65%[activator] | ? | . | 6%
Cc1ccc2c(c1)C1C[N+](C)(CC(=O)Nc3ccccc3Cl)CCC1N2C(=O)c1ccccc1Cl (stereo not given) | . | -7% | -4% | . | 0% | ? | . | 18%

High-throughput results: PubChem, National Center for Advancing Translational Sciences (NCATS)
